Assay outcomes (PubChem BioAssay)
TRPML1 ag = human mucolipin-1 channel agonism; 410,000 tested, 0.12% active; activation, % (no concentration beside the values); TRPML1-expressing cells, Ca2+ dye fluorescence, FDSS; host cell line not named in the record; reference of the full effect not given here; in the data active = activation above about 50%; inconclusive = about 30% to 50%; inactive = below about 30%; note: 0% is about no effect; the text of the record puts the active cut at 80%
Target sequence (Q9GZU1 whole entry, looked up): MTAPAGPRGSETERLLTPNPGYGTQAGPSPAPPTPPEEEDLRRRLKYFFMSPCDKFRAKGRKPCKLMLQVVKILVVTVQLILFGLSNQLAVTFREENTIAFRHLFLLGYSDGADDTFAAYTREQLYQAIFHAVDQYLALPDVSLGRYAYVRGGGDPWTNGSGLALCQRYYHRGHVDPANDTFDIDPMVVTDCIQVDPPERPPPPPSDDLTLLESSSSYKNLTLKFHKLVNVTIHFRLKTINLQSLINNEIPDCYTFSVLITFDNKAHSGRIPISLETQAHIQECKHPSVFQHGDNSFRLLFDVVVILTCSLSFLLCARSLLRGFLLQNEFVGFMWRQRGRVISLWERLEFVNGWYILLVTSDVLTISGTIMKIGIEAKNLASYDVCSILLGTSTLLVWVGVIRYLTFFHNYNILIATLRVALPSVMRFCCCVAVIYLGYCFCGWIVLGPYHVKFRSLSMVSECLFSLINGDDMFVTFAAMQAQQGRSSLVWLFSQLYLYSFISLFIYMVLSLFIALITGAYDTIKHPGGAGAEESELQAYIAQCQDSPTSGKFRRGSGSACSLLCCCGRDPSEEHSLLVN
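Calcium fluorescence on an FDSS kinetic reader gave the read-out. Tet-induced TRPML1-DL cells were plated overnight, dye-loaded (Ca8 with quencher, 45-90 min, room temperature, dark), then read 110 s after compound addition, and again 110 s after 4uM final 54-4 (EC80).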
TRPML1 inh = human mucolipin-1 channel inhibition | Q9GZU1 | TRPML1-inducible cells, Ca2+ dye fluorescence, FDSS; stronger effect = lower value; inhibition of EC80 agonist-evoked calcium signal | activity change, negative = inhibition, % (test concentration not listed) | 390,000 tested, 0.02% active | AID 624415; in the data active means activity change below about -50%; inconclusive means about -30% to -50%; inactive means above about -30%;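 note: stimulus is agonist 54-4 at its EC80 concentration; % is set by controls: 0 for no effect and ±100 for the full control effect; compound concentration not given in the record; the text of the record puts the active cut at -80%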
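Tet-induced TRPML1-DL cells loaded with Ca8 no-wash calcium dye were read kinetically on FDSS. Compound addition was followed by EC80 agonist 54-4 (4 uM final); inhibition was read over 110 s.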
D2 PAM = positive allosteric modulators of human D2 dopamine receptor; P14416; DiscoveRx D2 beta-arrestin cells, luminescence, 90 min; 100% = 57 uM dopamine signal; potentiation, % (no concentration beside the values); 360,000 tested, 0.23% active; AID 624464; active = potentiation of 50% or more; inconclusive = 30% to 50%; inactive = 30% or less;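 note: compound concentration not given in the record; tested on top of an EC20 dose of dopamine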
Target sequence (P14416 whole entry, looked up): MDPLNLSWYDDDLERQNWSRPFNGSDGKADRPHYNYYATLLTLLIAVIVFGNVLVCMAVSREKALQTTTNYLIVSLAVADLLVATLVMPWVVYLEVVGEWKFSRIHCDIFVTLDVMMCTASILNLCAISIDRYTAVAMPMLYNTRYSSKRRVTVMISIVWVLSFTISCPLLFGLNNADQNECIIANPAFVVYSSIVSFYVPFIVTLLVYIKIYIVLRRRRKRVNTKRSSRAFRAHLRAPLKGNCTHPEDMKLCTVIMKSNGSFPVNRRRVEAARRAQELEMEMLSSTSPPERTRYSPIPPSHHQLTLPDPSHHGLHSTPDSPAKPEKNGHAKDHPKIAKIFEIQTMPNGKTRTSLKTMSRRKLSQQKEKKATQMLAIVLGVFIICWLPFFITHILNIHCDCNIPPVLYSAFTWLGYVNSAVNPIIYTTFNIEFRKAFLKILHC
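D2 cells co-treated with compound plus 50 nM dopamine (EC20) for 90 min at 37 deg C to detect potentiation. Beta-arrestin recruitment was read as enzyme-fragment luminescence after 1 h at ambient temperature. Full response was set by 57 uM dopamine.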
Six1-Eya2 blk = blocks human Six1 binding to Eya2. Q15475+O00167. AlphaScreen GST-Six1/His-Eya2 binding, biochemical; stronger effect = lower value; control for the full effect not named in the record. activity change, % (concentration not given with the values). 360,000 tested, 0.56% active. AID 651725; in the data active = activity change below about -65%; inconclusive = about -30% to -65%; inactive = above about -30%; note: % is set by controls: 0 for no effect and ±100 for the full control effect
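AlphaScreen with GST-Six1 and His-Eya2 (5X mix: 250 nM and 500 nM), glutathione donor and nickel acceptor beads; buffer 50 mM Tris pH 8.0, 300 mM NaCl, 1 mM TCEP; 1 h at 37 C in the dark.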
CtBP-E1A inh = blocks the CtBP interaction with E1A | AlphaScreen GST-E1A/His-CtBP binding, 1536-well; stronger effect = lower value; control for the full effect not named in the record | activity change, % (concentration not given with the values) | 340,000 tested, 0.49% active | AID 651724; in the data active means activity change below about -65%; inconclusive means about -30% to -65%; inactive means above about -30%; note: % is set by controls: 0 for no effect and ±100 for the full control effect
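Protein mix (5X: 125 nM each GST-E1A, His-CtBP) was incubated with pinned compound 2 h at 37 deg C in dark, in 50 mM Tris pH 8.0 buffer with 300 mM NaCl. Glutathione donor and nickel acceptor beads followed; AlphaScreen signal read after 1 h.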
TRPV1 PAM = potentiators of human vanilloid receptor 1 (TRPV1); AID 540277; Q8NER1; 320,000 tested, 0.02% active; potentiation, % at 8.33 µM; TRPV1-expressing cells, Fluo-8 calcium influx, capsaicin EC20 potentiation; host cell line not named in the record; control for the full effect not named in the record; active means potentiation above 80%; inconclusive means 30% to 80%; inactive means below 30%; note: 0% is about no effect
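Cells expressing TRPV1 were dye-loaded with Fluo-8 and read kinetically: 10 s baseline, 3 min after compound (agonist portion), then 2 min after EC20 capsaicin (allosteric enhancer portion). Calcium-bound dye fluorescence at 480/520 nm.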
Starred values were filed as active, the others as inactive.

For O=C(N/N=C/c1ccccc1F)c1cc2c(ccc3ccccc32)o1 the results were TRPML1 ag -0.5, TRPML1 inh -18, D2 PAM 0, Six1-Eya2 blk 4, CtBP-E1A inh 6 and TRPV1 PAM 13.
Screening COC(=O)c1ccc2[nH]cc(CCO)c2c1 returned TRPML1 ag -0.4, TRPML1 inh -9, D2 PAM -8, Six1-Eya2 blk 5, CtBP-E1A inh -18 and TRPV1 PAM 19.
`O=C(CSc1ccc2nnc(-c3cccc(F)c3)n2n1)NCc1ccco1` gave TRPML1 ag 0.2, TRPML1 inh 16, D2 PAM 1, Six1-Eya2 blk -11 and CtBP-E1A inh -15.
C=CCNCCCCOc1c(Cl)cc(C)cc1Br was read as TRPML1 ag -0.3, TRPML1 inh 27, D2 PAM -5, Six1-Eya2 blk 6, CtBP-E1A inh 6 and TRPV1 PAM 4.
`O=C(O)C1C2CCC(O2)C1C(=O)NCc1ccncc1` (stereo not drawn) gave TRPML1 ag -0.3, TRPML1 inh 42, D2 PAM -2, Six1-Eya2 blk 5 and CtBP-E1A inh 5.
For CC(Oc1ccc(F)cc1)C(=O)/C=C\N(C)C (stereo not drawn) the results were TRPML1 ag 3.0, TRPML1 inh -4, D2 PAM 6, Six1-Eya2 blk 0, CtBP-E1A inh 12 and TRPV1 PAM -5.
COc1ccc(CCNC(=O)CCc2ccccc2O)cc1OC was read as TRPML1 ag 0.6, TRPML1 inh 3, D2 PAM 1, Six1-Eya2 blk -2, CtBP-E1A inh -4 and TRPV1 PAM 7.
Screening CC(C)N1CCC(N2CCN(Cc3cccc4nonc34)CC2CCO)CC1 (stereo not drawn) returned TRPML1 ag -0.9, TRPML1 inh 5, D2 PAM -4, Six1-Eya2 blk -4, CtBP-E1A inh 4 and TRPV1 PAM -3.
For CCC(C)c1ccc(NC(=S)NCCn2cc(Br)cn2)cc1 (stereo not drawn) the results were TRPML1 ag 0.6, TRPML1 inh -2, D2 PAM -4, Six1-Eya2 blk -5, CtBP-E1A inh 2 and TRPV1 PAM -10.
Screening CCC(=O)N/C(N)=N/c1nc(C)c2cc(OC)ccc2n1 returned TRPML1 ag 2.0, TRPML1 inh 21, D2 PAM -8, Six1-Eya2 blk -21, CtBP-E1A inh -9 and TRPV1 PAM 8.

The closing 5 compounds of the section before come first, to join the parts:
For CC(Oc1ccc(F)cc1)C(=O)/C=C\N(C)C (stereo not drawn) the results were TRPML1 ag 3.0, TRPML1 inh -4, D2 PAM 6, Six1-Eya2 blk 0, CtBP-E1A inh 12 and TRPV1 PAM -5.
COc1ccc(CCNC(=O)CCc2ccccc2O)cc1OC was read as TRPML1 ag 0.6, TRPML1 inh 3, D2 PAM 1, Six1-Eya2 blk -2, CtBP-E1A inh -4 and TRPV1 PAM 7.
Screening CC(C)N1CCC(N2CCN(Cc3cccc4nonc34)CC2CCO)CC1 (stereo not drawn) returned TRPML1 ag -0.9, TRPML1 inh 5, D2 PAM -4, Six1-Eya2 blk -4, CtBP-E1A inh 4 and TRPV1 PAM -3.
For CCC(C)c1ccc(NC(=S)NCCn2cc(Br)cn2)cc1 (stereo not drawn) the results were TRPML1 ag 0.6, TRPML1 inh -2, D2 PAM -4, Six1-Eya2 blk -5, CtBP-E1A inh 2 and TRPV1 PAM -10.
Screening CCC(=O)N/C(N)=N/c1nc(C)c2cc(OC)ccc2n1 returned TRPML1 ag 2.0, TRPML1 inh 21, D2 PAM -8, Six1-Eya2 blk -21, CtBP-E1A inh -9 and TRPV1 PAM 8.
`c1csc(C(c2nnnn2C2CCCC2)N2CCOCC2)c1` (stereo not drawn) gave TRPML1 ag -0.1, TRPML1 inh 4, D2 PAM -10, Six1-Eya2 blk 15, CtBP-E1A inh 1 and TRPV1 PAM -1.
For O=C(NC(NC(=O)c1ccccc1)C(=O)c1ccccc1)c1ccccc1 the results were TRPML1 ag -1.3, TRPML1 inh -9, D2 PAM -9, Six1-Eya2 blk 0, CtBP-E1A inh 2 and TRPV1 PAM 7.
For Cc1ccc2c(c1)cc(CN(CCc1ccccc1)C(=O)N1CCOCC1)c1nnnn12 the results were TRPML1 ag -0.7, TRPML1 inh 1, D2 PAM -7, Six1-Eya2 blk -1, CtBP-E1A inh 0 and TRPV1 PAM -17.
For FC(F)(F)c1ccc(C2Nc3cccc4cccc(c34)N2)cc1 the results were TRPML1 ag 0.0, TRPML1 inh -4, D2 PAM 9, Six1-Eya2 blk 1, CtBP-E1A inh 4 and TRPV1 PAM -8.
COc1cccc(/C=N/NC(=O)c2ccc(N(C)S(=O)(=O)c3ccccc3)cc2)c1OC was read as TRPML1 ag 0.4, TRPML1 inh -11, D2 PAM -11, Six1-Eya2 blk 4 and TRPV1 PAM -3.
O=C(NC1CCSC1=O)c1ccccc1 (stereo not drawn) was read as TRPML1 ag 0.8, TRPML1 inh 1, D2 PAM -5, Six1-Eya2 blk 0, CtBP-E1A inh 5 and TRPV1 PAM 7.
For Cc1ccc(C(=O)COc2nc(C)nc3ccccc23)cc1 the results were TRPML1 ag -0.5, TRPML1 inh -2, D2 PAM 1, Six1-Eya2 blk 3, CtBP-E1A inh 0 and TRPV1 PAM 2.
For CN(C)c1cc(-c2cccc([N+](=O)[O-])c2)oc(=O)c1Cl the results were TRPML1 ag -0.4, TRPML1 inh -3, D2 PAM 2, Six1-Eya2 blk 1, CtBP-E1A inh -3 and TRPV1 PAM -2.
For O=C1CN(C(=O)c2ccc(Br)o2)C(c2ccccc2)c2cc(F)ccc2N1 (stereo not drawn) the results were TRPML1 ag 1.9, TRPML1 inh -11, D2 PAM 2, Six1-Eya2 blk 0, CtBP-E1A inh 3 and TRPV1 PAM -15.
`CC(C)(C)NS(=O)(=O)c1ccc(CCC(=O)Nc2ccc3c(c2)OCCO3)cc1` gave TRPML1 ag 0.1, TRPML1 inh -3, D2 PAM -7, Six1-Eya2 blk -2, CtBP-E1A inh 2 and TRPV1 PAM inconclusive.
COc1cc(OC)cc(C2=Cc3ccccc3C(CC(C)=O)N2c2ccc(-c3cncnc3)cc2)c1 (stereo not drawn) was read as TRPML1 ag 0.1, Six1-Eya2 blk -2 and CtBP-E1A inh 1.
`CCC(=O)Nc1ccccc1C(=O)OCC(=O)c1ccccc1` gave TRPML1 ag 0.7, TRPML1 inh 6, D2 PAM -16, Six1-Eya2 blk 5, CtBP-E1A inh 9 and TRPV1 PAM inconclusive.
Screening CC(=O)Nc1c(Cl)cc2c(c1Cl)Cc1cc(C#N)ccc1-2 returned TRPML1 ag -0.3, TRPML1 inh 17, D2 PAM -3, Six1-Eya2 blk -3 and CtBP-E1A inh 9.
`Cc1cccc(-c2noc(-c3ccno3)n2)c1` gave TRPML1 ag -0.3, TRPML1 inh 2, D2 PAM -5 and Six1-Eya2 blk 16.
For Nc1nc(SCC(=O)Nc2ccc(Br)cc2F)n[nH]1 the results were TRPML1 ag -0.1, TRPML1 inh 63, D2 PAM -1, Six1-Eya2 blk 6, CtBP-E1A inh 5 and TRPV1 PAM -1.
`CCCCCCCCNc1ncnc2ccccc12` gave TRPML1 ag 1.2, TRPML1 inh -2, D2 PAM 1, Six1-Eya2 blk 1, CtBP-E1A inh 5 and TRPV1 PAM 6.
`Cc1ccc(S(=O)(=O)NCCSC(C)(C)C)cc1` gave TRPML1 ag 1.4, TRPML1 inh -1, D2 PAM 6, Six1-Eya2 blk -1, CtBP-E1A inh -2 and TRPV1 PAM -21.
`Cc1cc(NC(=O)CSc2nnnn2C2CCCC2)no1` gave TRPML1 ag -0.5, TRPML1 inh -10, D2 PAM 2, Six1-Eya2 blk -5, CtBP-E1A inh -2 and TRPV1 PAM -2.
Screening COc1ccc(C2=CSC3=NCCN23)cc1[N+](=O)[O-] returned TRPML1 ag -0.8, TRPML1 inh 21, D2 PAM -2, Six1-Eya2 blk 0, CtBP-E1A inh 6 and TRPV1 PAM 5.
Screening COc1ccc(S(=O)(=O)Nc2cccc(-n3cnnn3)c2)cc1 returned TRPML1 ag 3.0, TRPML1 inh 11, D2 PAM -4, Six1-Eya2 blk 3 and TRPV1 PAM 8.
Screening COC(=O)c1cc(NC(=O)c2c(F)c(F)c(F)c(F)c2F)cc(C(=O)OC)c1 returned TRPML1 ag 1.1, TRPML1 inh -12, D2 PAM 16, Six1-Eya2 blk -2, CtBP-E1A inh 0 and TRPV1 PAM -8.
`N#Cc1ccc(/C=C2\CCn3c2nc2cc(C(=O)O)ccc2c3=O)cc1` gave TRPML1 ag -0.5, TRPML1 inh -9, D2 PAM -4, Six1-Eya2 blk 0, CtBP-E1A inh 7 and TRPV1 PAM -17.
For CN1C(C)(C)CC(NC(=O)CCC(=O)NC2CC(C)(C)N(C)C(C)(C)C2)CC1(C)C the results were TRPML1 ag -1.3, TRPML1 inh 4, D2 PAM 13, Six1-Eya2 blk 8 and CtBP-E1A inh -15.
Screening CC1CCN(C(=O)c2nc[nH]c2C(=O)OCCNC(=O)OC(C)(C)C)CC1 returned TRPML1 ag -0.1, TRPML1 inh -22, D2 PAM -6, Six1-Eya2 blk 9 and TRPV1 PAM 17.
`COc1cc(C#N)ccc1OC(=O)C1CCN(C(=O)c2ccc(F)cc2)CC1` gave TRPML1 ag 0.4, TRPML1 inh -1, D2 PAM -12, Six1-Eya2 blk -24, CtBP-E1A inh -10 and TRPV1 PAM 6.
`CC(C)c1ccc(NC2CCCN(C(=O)CCN3CCCCC3=O)C2)cc1` (stereo not drawn) gave TRPML1 ag -0.1, TRPML1 inh 17, D2 PAM 1, Six1-Eya2 blk 1, CtBP-E1A inh -16 and TRPV1 PAM -24.
Screening O=C(CSc1nc2c(cnn2-c2ccccc2)c(=O)[nH]1)NCC1CCCO1 (stereo not drawn) returned TRPML1 ag -0.5, TRPML1 inh 23, D2 PAM -2, Six1-Eya2 blk 2 and CtBP-E1A inh 5.
For O=C1c2ccccc2C(=O)N1CCC(c1ccc(F)cc1)c1ccco1 (stereo not drawn) the results were TRPML1 ag -1.2, TRPML1 inh -7, D2 PAM -12, Six1-Eya2 blk -1, CtBP-E1A inh 0 and TRPV1 PAM 5.
CC(CCN1CCOCC1)c1ccccc1 (stereo not drawn) was read as TRPML1 ag 0.7, TRPML1 inh -1, D2 PAM -2, Six1-Eya2 blk 3, CtBP-E1A inh 8 and TRPV1 PAM 3.
`CCN(CC)c1ccc(C(=O)OCC(=O)Nc2ccc3[nH]c(=O)[nH]c3c2)cc1` gave TRPML1 ag -0.5, TRPML1 inh -7, D2 PAM -6, Six1-Eya2 blk -13, CtBP-E1A inh -8 and TRPV1 PAM inconclusive.
For Cc1cccc(N(C(=O)c2sc(C)nc2C)C(C(=O)NCC2CCCO2)c2ccccc2)c1 (stereo not drawn) the results were TRPML1 ag -1.4, TRPML1 inh -6, D2 PAM 26, Six1-Eya2 blk 9, CtBP-E1A inh 0 and TRPV1 PAM 0.
`CCNc1nc(NCC)nc(N/N=C/c2ccc(O)c(OC)c2)n1` gave TRPML1 ag -0.7, TRPML1 inh -1, D2 PAM -11, Six1-Eya2 blk -1, CtBP-E1A inh 1 and TRPV1 PAM 7.
For CC(c1ccco1)N(C(=O)COc1ccccc1[N+](=O)[O-])c1ccccn1 (stereo not drawn) the results were TRPML1 ag 1.4, TRPML1 inh -17, D2 PAM -7, Six1-Eya2 blk -6, CtBP-E1A inh 3 and TRPV1 PAM 3.
